hNpr1 antagonist = antagonists of human natriuretic peptide receptor Npr1 | HEK293 hNpr1 GloSensor cGMP, ANP-stimulated luminescence | 76,000 tested, 1.6% active | AID 1347048 | P16066 | Potency, µM (highest dose often 46.3 µM), for the others: at the top dose activity change, negative = inhibition, usual class: inhibitors; active = well fitted inhibition curve with a large enough effect; inconclusive = small, poorly fitted or top-dose-only effect; inactive = no such curve, though single readings can be large or run the other way;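 also: nearly all actives have a fitted effect of over 60% in size; nearly all hits also lower the signal before the agonist is added; a reference antagonist and vehicle were the controls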
Target sequence (P16066 whole entry, looked up): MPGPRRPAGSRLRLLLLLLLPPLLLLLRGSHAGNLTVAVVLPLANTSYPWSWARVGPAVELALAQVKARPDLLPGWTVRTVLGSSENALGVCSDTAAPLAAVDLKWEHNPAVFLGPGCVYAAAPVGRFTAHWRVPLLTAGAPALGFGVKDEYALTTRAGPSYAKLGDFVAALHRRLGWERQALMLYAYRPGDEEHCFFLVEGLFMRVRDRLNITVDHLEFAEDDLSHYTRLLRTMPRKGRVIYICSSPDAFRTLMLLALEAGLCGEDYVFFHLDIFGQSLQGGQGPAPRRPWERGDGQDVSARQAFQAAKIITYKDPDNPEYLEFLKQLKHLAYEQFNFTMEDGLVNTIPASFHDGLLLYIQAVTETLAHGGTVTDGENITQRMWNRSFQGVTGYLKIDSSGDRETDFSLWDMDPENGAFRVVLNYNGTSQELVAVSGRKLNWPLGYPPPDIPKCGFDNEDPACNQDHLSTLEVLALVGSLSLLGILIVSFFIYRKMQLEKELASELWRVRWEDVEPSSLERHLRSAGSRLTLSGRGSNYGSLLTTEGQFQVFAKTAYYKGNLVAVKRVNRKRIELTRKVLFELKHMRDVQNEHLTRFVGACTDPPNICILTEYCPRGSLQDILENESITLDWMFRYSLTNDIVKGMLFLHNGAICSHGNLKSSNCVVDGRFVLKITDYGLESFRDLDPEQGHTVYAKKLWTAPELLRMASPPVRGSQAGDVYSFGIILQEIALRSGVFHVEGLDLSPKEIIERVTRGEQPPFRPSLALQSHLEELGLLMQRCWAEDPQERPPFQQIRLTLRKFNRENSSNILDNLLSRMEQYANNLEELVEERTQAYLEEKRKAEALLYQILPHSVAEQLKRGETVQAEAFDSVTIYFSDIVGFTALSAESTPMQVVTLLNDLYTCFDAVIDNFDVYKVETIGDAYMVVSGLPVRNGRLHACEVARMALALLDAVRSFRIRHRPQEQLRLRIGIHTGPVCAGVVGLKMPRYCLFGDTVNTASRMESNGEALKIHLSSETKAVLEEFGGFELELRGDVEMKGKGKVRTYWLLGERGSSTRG
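HEK293 cells stably expressing human Npr1 and cGMP GloSensor pGS-40F, loaded 2 h with 2% GloSensor reagent, given compound 30 min at room temperature. Luminescence read before and 20 min after 0.1 nM hNppA.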
An asterisk follows results filed as active; ? = inconclusive; [ ] = another dose, or the depositor's remark. % is scaled to controls: 0 for no effect and ±100 for the full control effect; potency is read from the fitted curve at half-maximal effect. Only part of the results is shown. The share of hits here may be higher or lower than overall.

Compound | hNpr1 antagonist
COCc1cc(C[C@@H]2CC[C@H](O)[C@@H](CN(C(=O)Nc3ccccc3)C(=O)Nc3ccccc3)O2)no1 | -6%
COc1ccccc1Nc1ncc2c(n1)CN(C(=O)c1cccc(N(C)C)c1)CCN2 | 22µM*
CCN(CC)C(=O)C(NC(=O)c1cccs1)C1CCN(C(=O)c2cccc(F)c2)CC1 (configuration not stated) | 0%
CCCNC(=O)N1CCCN(Cc2ccc3c(c2)OCO3)c2ccccc21 | -20%
CN(C(=O)[C@@H]1C[C@@H](c2cccc(C(F)(F)F)c2)N(Cc2cnn(C)c2)C1)c1ccccc1 | -8%
c1cc(OC2CCCCC2)ncc1-c1noc([C@@H]2CCCN2C2CCOCC2)n1 | -18%[70.6 µM]
CCCN(CC1CCOC1)S(=O)(=O)c1ccccc1F (configuration not stated) | 3%
CCN(CC)Cc1cnc2c(C(=O)NC(C)(C)CO)cnn2c1 | 5%
O=C1NC(C(=O)NCC2CCN(Cc3ccc(F)cc3)CC2)Cn2cccc21 (configuration not stated) | 4%
Cc1cc(C)cc(C(=O)N2CCN(C3CCN(Cc4cccnc4)C3=O)CC2)c1 (configuration not stated) | 1%
Cc1ncsc1CN1CCCCCCNC(=O)[C@@H]2C[C@@H](C(=O)N3CCc4ccccc4C3)C[C@@H]21 | -18%
Cc1ccccc1CC(=O)N1CCC(N2CCCC(C(=O)NC3CC3)C2)CC1 (configuration not stated) | -11%
Cc1nc(C)c(C(=O)N2CC[C@H](CO)[C@H](NC(=O)C3CC3)C2)s1 | 2%
COc1ccc(CN2C=C(C(=O)OCc3noc(C4CCCCC4)n3)C(C)=NS2(=O)=O)cc1 | ?
O=C(Nc1ccc2c(N3CCCCC3)ncnc2c1)c1ccccc1C(F)(F)F | -25%
CC(=O)N1C[C@@H]2C[C@H]1C(=O)N(Cc1ccc(OC(F)(F)F)cc1)c1ccccc1O2 | 2%[70.6 µM]
COc1ccc(CC(=O)N2CCOC[C@H](Oc3ccc(OC)cc3)C2)cc1 | 0%[70.6 µM]
COc1ccc(OC)c(NC(=O)CCC2CCN(C(=O)c3ccccc3)CC2)c1 | -11%
CC(C)N1CCC2(CC1)CN(C(=O)Cc1ccsc1)Cc1ccccc1O2 | 0%
Cn1ccnc1CNC[C@H]1Cn2c(-c3ccccc3)cnc2CO1 | 0%[70.6 µM]
COC[C@@H]1CN(C(=O)COc2ccc(F)cc2)C[C@H]1c1nc(C)no1 | -2%
O=C(CN1C(=O)NC2(CCOCC2)C1=O)Nc1cccc(F)c1 | -4%
Cc1ocnc1C(=O)NC1CC(=O)N(CCc2ccc(F)cc2)C1 (configuration not stated) | 1%
Cc1ccc(CC(=O)N2C[C@@H](CN3CCCCCC3)[C@@H](CO)C2)cc1 | 7%
COCCNC(=O)[C@@H]1C[C@H](Oc2ccccc2)CN1C(=O)CC(C)C | 7%
CCN(Cc1ccncc1)C(=O)c1ccc2c(c1)C(O)CCCCCN2C (configuration not stated) | -23%
Cn1ccnc1-c1ccc(N2CCCC(CO)(Cc3cccc(Cl)c3)C2)nn1 (configuration not stated) | ?
COc1ccc(CN2C[C@H](O)C[C@H]2c2nc(-c3ccncc3)no2)cc1 | 0%[70.6 µM]
CCOC(=O)CCNC(=O)N1CCCCCCNC(=O)[C@@H]2C[C@@H](c3nc(-c4cccnc4)no3)C[C@@H]21 | 5%
CC(C)CC(=O)N[C@H](C)c1onc(-c2ccc(F)cc2)c1C(=O)O | -1%[70.6 µM]
CN(C)c1cc(N2CCCC(NC(=O)COc3ccccc3)C2)ncn1 (configuration not stated) | -1%
Cc1ccccc1[C@H]1C[C@@H](O)[C@@H](O)[C@@H]1NC(=O)c1cncnc1 | 4%[70.6 µM]
Cc1ccc(C(=O)N(CC(C)C)CC2CN(C(=O)Nc3cccc(Cl)c3)CCO2)cc1 (configuration not stated) | -13%
Cc1cnc(CCNC(=O)NC(C)(C)C)n1Cc1ccccc1 | -4%
CC(C)CCN1C[C@@H]2C[C@H]1C(=O)N(Cc1cccnc1)c1ccccc1O2 | ?
Cc1c(-c2ccccc2F)[nH]c2ccc(CNC(=O)C3C=CCN3)cc12 (configuration not stated) | -23%
COCc1ccc2c(c1)c(OC(C)(C)C(=O)NCC[S+](C)(=O)[O-])nn2Cc1ccccc1 | -1%
COc1ccc(-c2nc(C)nc3c2CN(C(=O)c2ccc(F)cc2)CC3)cc1 | -9%
COCCn1cc(CN(C)CCc2c(C)noc2C)ccc1=O | -2%
CCCN(CC1CCOC1)S(=O)(=O)c1ccc(C)c(F)c1 (configuration not stated) | -2%
Cc1cc(F)ccc1NC(=O)C1CCN(c2cc(C(F)(F)F)ncn2)CC1 | ?
COCc1cc(=O)n(CC(=O)Nc2cc(C)cc(C)c2)c(N2CCOCC2)n1 | -13%
CCOC(=O)C1(Cc2ccc(F)cc2F)CCCN(S(=O)(=O)c2c(C)noc2C)C1 (configuration not stated) | 5%
Nc1ccc2c(N3CCCCC3)ncnc2c1 | -5%
CC(C)CN1C(=O)CO[C@H](c2ccc(NC(=O)C3CC3)cc2)[C@H]1CO | -17%[70.6 µM]
OCC1(CN2CCCC2)CCN(Cc2c(Cl)cccc2Cl)CC1 | 2%
O=C1CCN(C(=O)[C@@H](Cc2ccccc2)NS(=O)(=O)c2ccc3c(c2)CCC3)CCOCCN1 | -1%
Cc1ccc(-c2noc([C@@H]3CCCN3C(=O)c3ccc4c(c3)OCO4)n2)cc1 | -9%
CC(C)(C)CC(=O)N1CCn2c(nnc2[C@@H]2C[C@@H](O)CN2Cc2ccccc2)C1 | 0%
CC(C)(C)C(=O)NCc1c[nH]c2ncccc12 | 0%[70.6 µM]

Remaining list, next part:
Compound | hNpr1 antagonist
O=C1CC(c2ccccc2)N(C(=O)CNC(=O)CN2CCOCC2)CCCCCN1 (configuration not stated) | 1%
CCn1ccc(C(=O)NCC(=O)N2CCCCCCNC(=O)CC2c2ccccc2)n1 (configuration not stated) | 5%
CC(C)c1noc(-c2cccn3c(CNC(=O)c4ccccc4)nnc23)n1 | 2%
CN(Cc1cccnc1)Cc1nc(C2(O)CCN(CC3CCCCC3)CC2)cs1 | -4%[70.6 µM]
CCCN(CC1CCOC1)C(=O)Cc1c(F)cccc1Cl (configuration not stated) | 0%
Cc1cc(=O)n(CC(=O)Nc2cc(Cl)ccc2C)c(N2CCC(C)CC2)n1 | ?
COc1ccc(OC)c(CNC(=O)c2ccc3c(c2)C(O)CCCCCN3C)c1 (configuration not stated) | -5%
Cc1cc2cc(C(=O)N3CCCC(OCc4ccccn4)C3)ccc2o1 (configuration not stated) | -8%
COc1cc(NC(=O)C2(Cc3cccnc3)CCCCC(=O)N2)cc(OC)c1 (configuration not stated) | -15%
COc1ccc2c(C)c(C(=O)N3CCCC3c3c(C)noc3C)oc2c1 (configuration not stated) | -7%

SMILES: O=C(CCc1ccccc1)N1CCC2(CC1)CC(N(C(=O)c1ccccc1)C1CC1)CCO2 (configuration not stated)
  hNpr1 antagonist: -14%

SMILES: CN(Cc1cccn1C)C(=O)Nc1ccc(Cl)cc1
  hNpr1 antagonist: ?

SMILES: COc1ccc([C@H]2CN(C(=O)c3nc(N)nc4c3CCCC4)C[C@@H]2N)cc1
  hNpr1 antagonist: -4%

SMILES: COc1cccc(CC(=O)N2CCCN(Cc3ccncc3)C(c3ccccc3)CC(=O)NCC2)c1 (configuration not stated)
  hNpr1 antagonist: 1%

SMILES: CCc1noc(-c2cccn3c(CNC(=O)Cc4c[nH]c5ccccc45)nnc23)n1
  hNpr1 antagonist: 8%

SMILES: CNC(=O)N1CCC(C2CCN(Cc3cccc(OC)c3OC)C2)CC1 (configuration not stated)
  hNpr1 antagonist: 5%

SMILES: CCOCC(=O)N1C[C@@H](Oc2ccccc2)C[C@H]1C(=O)N1CCCC1
  hNpr1 antagonist: 0%

SMILES: COc1ccccc1N1CCCc2ncc(C(=O)N3CCCC[C@@H]3Cc3ccccc3)cc21
  hNpr1 antagonist: -17%

SMILES: Cc1cc(-c2cc3c(cn2)CN(CC2CCOC2)CCN3)ccn1 (configuration not stated)
  hNpr1 antagonist: 4%[70.6 µM]

SMILES: O=C(N[C@@H]1CCNC[C@H]1O)c1cccc(-c2ccc(OC(F)(F)F)cc2)c1
  hNpr1 antagonist: 3%

SMILES: CCOc1ccc(C(=O)N2CCC(Cc3nc(-c4cnccn4)no3)CC2)cc1
  hNpr1 antagonist: -8%

SMILES: O=C([C@@H]1C[C@H](F)CN1S(=O)(=O)c1ccc(Cl)s1)N1CCc2ccccc2C1
  hNpr1 antagonist: 0%

SMILES: CCOC(=O)C1(Cc2ccccc2)CCCN(C(=O)c2ccccc2SC)C1 (configuration not stated)
  hNpr1 antagonist: -9%

SMILES: O=C(NCCc1ccncc1)C1c2ccccc2C(=O)N(Cc2ccccc2)C12CCCC2 (configuration not stated)
  hNpr1 antagonist: -16%

SMILES: CCCN(CC1CC1)C(=O)C1CCCCC(=O)N1Cc1cccc(OC)c1 (configuration not stated)
  hNpr1 antagonist: -1%

SMILES: CN1C[C@@H](NC(=O)CC(C)(C)C)C[C@H]1c1nc(-c2ccc3c(c2)OCO3)no1
  hNpr1 antagonist: 25µM*

SMILES: C=CCN1CCN(C(=O)C2(CCO)CC23CCOCC3)CC1 (configuration not stated)
  hNpr1 antagonist: 3%

SMILES: COc1ccc(NC(=O)c2cc3c(N4CCSCC4)nc(C)cn3n2)cc1OC
  hNpr1 antagonist: 6%

SMILES: Cc1cccc(CC(=O)N2CCCN(c3cc(-c4ccc(Br)cc4)[nH]n3)CC2)c1
  hNpr1 antagonist: ?

SMILES: COCC(=O)N1CCCC(c2nn(C)c(=O)n2C(C)C)C1 (configuration not stated)
  hNpr1 antagonist: 0%

SMILES: Cc1cccc(NC(=O)N2CCc3c(C(=O)N(C)Cc4ccco4)cccc32)c1
  hNpr1 antagonist: -19%

SMILES: COc1ccc(Cn2c(=O)[nH]c3cccnc32)cc1
  hNpr1 antagonist: 1%[70.6 µM]

SMILES: COc1ccc(-c2cc(N3CCC(NC(=O)c4cccc(C#N)c4)C3)n[nH]2)cc1 (configuration not stated)
  hNpr1 antagonist: -11%

SMILES: COc1ccc(CNC(=O)c2cc3cn(C(C)C)cc3s2)cc1
  hNpr1 antagonist: 3%

SMILES: CCN1C(=O)C2(CCN(S(=O)(=O)c3ccc(Cl)c(C)c3)CC2)c2ccccc21
  hNpr1 antagonist: 2%

SMILES: O=C(c1n[nH]c2c1CCCC2)N1CCCC2(C1)Nc1cccnc1NC2=NC1CCCC1 (configuration not stated)
  hNpr1 antagonist: 4%

SMILES: COc1ccc(C(=O)N2CCn3c(nn(-c4ccc(C)cc4)c3=O)C2)cc1
  hNpr1 antagonist: -20%

SMILES: O=C1CCN(S(=O)(=O)c2ccc3c(c2)CCC3)CCCC(CO)CCN1 (configuration not stated)
  hNpr1 antagonist: 0%

SMILES: COc1cccc(-c2nc3c([nH]2)CN(C(=O)CCn2cnnn2)CC3)c1
  hNpr1 antagonist: 7%

SMILES: CC(C)c1nc2c(NC(=O)COc3ccccc3)cccn2n1
  hNpr1 antagonist: 8%

SMILES: COc1ccccc1CNC(=O)CCC[C@@H]1[C@H]2CCCN3CCC[C@@H](CN1C(=O)c1ccccc1)[C@@H]23
  hNpr1 antagonist: -3%

SMILES: CN(C)c1nc2c(c(=O)[nH]1)CCN(Cc1cccc(F)c1F)CC2
  hNpr1 antagonist: 8%

SMILES: CC(c1ccccc1-n1cccn1)n1cc(-c2nccn2C)nn1 (configuration not stated)
  hNpr1 antagonist: 2%

SMILES: CN(CC[C@H]1CN(C(=O)c2ccnc(Cl)c2)CC[C@H]1CC(=O)O)c1ccccc1
  hNpr1 antagonist: -1%[70.6 µM]

SMILES: COc1ccc(CCC(=O)N2CCN(C(=O)c3nnn4c3COC(c3ccccc3)C4)CC2)cc1 (configuration not stated)
  hNpr1 antagonist: -3%

SMILES: COc1ccc(-c2cc(N3CCCC(NC(=O)c4ccc(F)c(F)c4)C3)n[nH]2)cc1 (configuration not stated)
  hNpr1 antagonist: -21%

SMILES: CCCN(CC1CCOC1)C(=O)Nc1ccc(CC)cc1 (configuration not stated)
  hNpr1 antagonist: -4%

SMILES: CCOc1ccc(C(=O)N2CCC(n3cc(-c4nc(C)no4)nn3)C2)cc1 (configuration not stated)
  hNpr1 antagonist: -1%

SMILES: CC(C)c1ccc(CC(=O)N2CCCc3ncc(C(=O)N4CCCC[C@@H]4Cc4ccccc4)cc32)cc1
  hNpr1 antagonist: -7%

SMILES: COc1cc(OC)cc(C(=O)N2CCCC(c3noc(COc4ccccc4F)n3)C2)c1 (configuration not stated)
  hNpr1 antagonist: -12%

SMILES: CN1CCN([C@H]2CCN(C(=O)NCCc3ccccc3)C[C@H]2CCC(=O)O)CC1
  hNpr1 antagonist: 0%

SMILES: COc1ccc(C(=O)NC2CCN(c3cc(-c4cccs4)[nH]n3)C2)c(OC)c1 (configuration not stated)
  hNpr1 antagonist: -19%
